Screening data (PubChem BioAssay)
ALR H2O2 inh = blocks human ALR sulfhydryl oxidase activity; purified ALR, DTT oxidation, H2O2 HRP-luminol luminescence; actives 3.8% (n = 290,000); inhibition, % (test concentration not listed); AID 485317;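 active = mean and each replicate at 75% or more; inconclusive = only one of the two met; inactive = neither met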;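 note: stock transfer was 7.5 nL into about 7.5 µL; 0% = neutral wells and 100% = wells with inactivated enzyme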
Calb FLC = affects C. albicans growth with fluconazole; actives 0.57% (n = 300,000); growth inhibition, % (test concentration not listed); C. albicans CaCi-2 (fluconazole-resistant clinical isolate) + fluconazole, Alamar Blue growth, 48 h;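 active = most replicates above 75%; inconclusive = exactly half above 75%; inactive = most below 75%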;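 note: all wells also contain fluconazole at 8 µg/ml as a sub-toxic cotreatment; 0% = median of DMSO wells and 100% = median of geldanamycin control wells; wells of about 8 µL received 7.5 nL stock; the first replicate is given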
rRNA inh HTS = inhibitors of bacterial rRNA selective over humanized ribosomes | AID 720706 | E. coli WT GFP vs humanized-ribosome RFP mutants, fluorescence, 24 h; active compounds read low; DMSO median 0, no signal -100 | actives 1.6% (n = 350,000) | GFP signal change (wild-type ribosome), % (concentration not given with the values);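 active = significant combined selectivity score with lowered wild-type GFP, culture density cut under 30%, mutant RFP and density less affected; inactive = any of these conditions unmet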; note: one replicate is shown; some compounds called inactive have numbers as strong as hits
Beta2AR agonist = agonists of human beta-2 adrenergic receptor inducing internalization; P07550; Am2.2-beta2AR cells, FAP receptor internalization, flow cytometry; reference of the scale not given here; response, % (test concentration not listed); actives 0.43% (n = 340,000); AID 504454;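 active = response above a set limit, near 3 SD of response in nonfluorescent compounds, cut at about 42% in these data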;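 note: stock transfer was 100 nL into about 11 µL; a reference agonist was the positive control; negative values mostly stem from fluorescent compounds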
Bfl-1 A1 inh = inhibitors of the anti-apoptotic protein A1, read as caspase activation; MEF A1-2A-BIM cells, Caspase-Glo 3/7 luminescence, 3 h; percent of clofoctol response, vehicle zero; caspase activation, % (concentration not given with the values); actives 0.066% (n = 330,000);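 active = over half of replicate activation scores above 10%, or exactly half above 10 with the replicate mean above 10; inconclusive = replicate mean below 10 yet half the replicates above 10; inactive = over half of replicates below 10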;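 note: wells of about 30 µL received 50 nL stock; many hits fall short of the cut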
Beta cell apopt = beta cell apoptosis inhibition; INS-1E cytokine-induced death, ATP luminescence, 48 h; percent of positive-control rescue, neutral wells zero; actives 0.8% (n = 300,000); protection from apoptosis, % (test concentration not listed);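 active = all replicates at 75% or more, or half of them and the mean; inconclusive = half reach 75% but not the mean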;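 note: 0% = cytokine-treated negative control wells and 100% = positive control rescue; higher means more ATP so stronger rescue from cytokine killing; wells of about 40 µL received 100 nL stock; the first replicate is given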
LANA-H2B inh = blocks KSHV LANA binding to histone H2A/H2B; cell-free LANA-H2A/H2B peptide, fluorescence polarization; inhibition, % (test concentration not listed); actives 0.6% (n = 320,000); Q9QR71; in the data active = inhibition mostly above about 10%, no sharp cut-off; inactive = mostly below about 6.7%;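 note: stock transfer was 7.5 nL into about 10 µL; 0% = median of vehicle wells and 100% = median of positive control wells; one replicate is shown; the record names a cut of 25% in any replicate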
Target sequence (Q9QR71 whole entry, looked up): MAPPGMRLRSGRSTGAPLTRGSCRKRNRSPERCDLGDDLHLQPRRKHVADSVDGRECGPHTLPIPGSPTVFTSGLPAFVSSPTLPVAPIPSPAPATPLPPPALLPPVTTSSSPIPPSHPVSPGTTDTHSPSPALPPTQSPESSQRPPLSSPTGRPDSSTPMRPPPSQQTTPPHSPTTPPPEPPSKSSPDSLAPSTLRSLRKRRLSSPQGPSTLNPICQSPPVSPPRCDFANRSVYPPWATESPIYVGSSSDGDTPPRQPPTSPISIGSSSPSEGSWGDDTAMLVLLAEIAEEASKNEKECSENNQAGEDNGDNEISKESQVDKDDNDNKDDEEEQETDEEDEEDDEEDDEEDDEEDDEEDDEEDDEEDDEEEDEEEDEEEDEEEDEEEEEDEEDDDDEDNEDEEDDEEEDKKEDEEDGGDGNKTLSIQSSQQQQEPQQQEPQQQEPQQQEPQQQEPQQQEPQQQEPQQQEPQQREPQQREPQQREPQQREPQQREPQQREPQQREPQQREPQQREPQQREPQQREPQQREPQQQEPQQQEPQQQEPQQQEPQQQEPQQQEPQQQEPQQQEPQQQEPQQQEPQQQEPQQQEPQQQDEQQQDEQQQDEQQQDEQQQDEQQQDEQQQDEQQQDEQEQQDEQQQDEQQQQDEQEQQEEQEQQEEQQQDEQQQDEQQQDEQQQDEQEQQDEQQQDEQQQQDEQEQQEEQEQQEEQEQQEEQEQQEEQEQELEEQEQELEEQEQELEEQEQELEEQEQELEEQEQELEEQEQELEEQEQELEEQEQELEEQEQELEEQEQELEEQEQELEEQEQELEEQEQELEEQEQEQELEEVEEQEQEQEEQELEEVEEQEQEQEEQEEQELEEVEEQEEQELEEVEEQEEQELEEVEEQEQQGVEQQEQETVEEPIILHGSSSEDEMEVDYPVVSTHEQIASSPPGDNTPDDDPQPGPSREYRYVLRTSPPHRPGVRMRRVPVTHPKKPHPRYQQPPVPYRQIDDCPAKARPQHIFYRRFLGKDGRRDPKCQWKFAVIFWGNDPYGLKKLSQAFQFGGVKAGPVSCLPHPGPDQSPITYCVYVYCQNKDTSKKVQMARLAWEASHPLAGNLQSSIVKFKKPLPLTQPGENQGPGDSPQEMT
T cruzi inh = blocks replication of Trypanosoma cruzi; T. cruzi beta-gal in NIH3T3, luminescence, 90 h; inhibition, % (concentration not given with the values); actives 1.4% (n = 300,000);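 active = mean inhibition across valid replicates above about 55%, limit read from the data; inconclusive = mean below that limit but half or more replicates reach it; inactive = mean below it, under half of replicates reach it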;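 note: signal also drops with host cell toxicity which is not excluded here; 0% = plate median of DMSO wells and 100% = zero luminescence signal; higher percent means less beta-gal luminescence so fewer parasites; stock transfer was 50 nL into about 50 µL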
rRNA inh HTS OD600 = second read-out of rRNA inh HTS, no call of its own (marks repeat the call); OD600 change, %; measured here: OD600 growth;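 optical density of the mix in the first replicate; 0 = DMSO median and -100 = no signal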
rRNA inh HTS RFP = recorded beside rRNA inh HTS, whose call it bears; RFP signal change, %; measured here: RFP humanized mutant strains;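 first replicate; 0 = DMSO median and -100 = no signal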
Active calls of the source: *; u = inconclusive; x = no result given. Only part of the results is shown; rates above refer to the full screens.

SMILES	ALR H2O2 inh	Calb FLC	rRNA inh HTS	rRNA inh HTS OD600	rRNA inh HTS RFP	Beta2AR agonist	Bfl-1 A1 inh	Beta cell apopt	LANA-H2B inh	T cruzi inh
COc1ccc(C(=O)OCC(=O)NCc2ccco2)cc1S(=O)(=O)N1CCN(c2cccc(Cl)c2)CC1	6	-2	-4	-6	-3.0	14	1.2	-1	-5.6	2
Cc1cccn2c(=O)c3cc(C#N)c(=O)n(-c4c(C)n(C)n(-c5ccccc5)c4=O)c3nc12	-10	u	x	x	x	-4	-0.1	0	1.2	-4
CCN(Cc1nc(-c2ccc(OC)cc2)no1)C(=O)c1ccc2c(c1)OCO2	-2	-6	3	-21	2.7	-1	-0.6	0	-3.9	12
CCOC(=O)C1CCN(C(=O)CS(=O)(=O)Cc2nc(-c3ccccc3Cl)oc2C)CC1	u	-7	-8	-26	-3.5	13	0.6	-3	5.3	-10
O=C(CSc1nc2cc(S(=O)(=O)N3CCOCC3)ccc2o1)NC1CCCc2ccccc21 (centres undefined)	-2	-1	x	x	x	3	0.9	4	1.4	-3
CCN(Cc1ccccc1)C(=O)CN1C(=O)NC(CC)(c2ccc(F)cc2)C1=O (centres undefined)	-4	38	-2	-4	0.9	1	0.5	x	-4.2	-5
CC1=C/C(=C\c2ccc(Br)o2)C(=O)O1	54	5	-3	0	-4.5	8	-0.5	-3	-2.0	-13
COc1cccc(C2CC(c3ccc(NS(C)(=O)=O)cc3)=NN2C(=O)c2ccccc2)c1OC (centres undefined)	-16	103*	-7	-18	1.9	-1	-0.4	4	-3.2	2
COc1ccc(/C=C2\Oc3ccccc3C2=O)cc1	-17	x	1	19	-0.8	-5	-9.6	-2	-4.8	x
CCS(=O)(=O)c1ccc(-c2cccc(NC(=O)COc3ccccc3)c2)nn1	-3	27	15	16	-2.5	6	0.5	0	-1.8	-11
CC1CCC/C(=N\NC(=S)Nc2ccccc2)C1 (centres undefined)	-6	-12	x	x	x	-4	0.5	-4	-3.7	-10
COc1ccc(/C=N/NC(=O)CSCC(=O)Nc2ccccc2)cc1	-5	-7	-10	1	1.5	-4	1.7	-6	0.3	-5
CC(=O)N(C(C)=O)S(=O)(=O)c1ccc(N=NN2CCOCC2)cc1	-12	8	-1	-17	-2.0	-4	0.6	-2	-1.2	-9
Cc1noc(C)c1COc1ccc(CC(=O)NCCc2ccccn2)cc1	2	-4	6	8	0.5	-3	0.5	1	2.9	-1
Cc1cccc(NC(=O)CNC(=O)COC(=O)CCS(=O)(=O)c2ccccc2)c1C	18	11	6	1	0.8	2	0.4	-4	-4.3	-14
CCc1nnc(SC(C)C(=O)Nc2nccs2)n1C (centres undefined)	-9	-1	17	14	5.3	4	1.3	-2	2.7	-3
Cc1nc2ccc(NC(=O)c3cccc(S(=O)(=O)N4CCOCC4)c3)cc2s1	-5	x	-9	-4	-0.7	8	1.2	-1	-1.3	x
COCCN1C=C2C(=O)C(C)(OC(=O)C3CCCC3)C(=O)C(c3ccccc3)=C2C=C1CCCC(=O)OC (centres undefined)	-18	17	1	7	24	-3	-0.2	-3	5.1	1
COc1ccc(CC(=O)OCC(=O)N(CC(C)C)c2c(N)n(Cc3ccccc3)c(=O)[nH]c2=O)cc1	-1	-1	-2	6	-1.6	-4	-0.5	x	5.7	-1
COC(=O)c1ccc(CSc2nnc(CNC(=O)c3ccccc3F)o2)o1	97*	0	x	x	x	12	0.4	3	-1.2	0
C(=C1/CCCC2=C1Nc1ncnn1C2c1ccccc1)/c1ccccc1 (centres undefined)	91*	-8	x	x	x	x	1.7	-17	-4.5	74*
CCCCN(CC)Cc1ccc(CNC(=O)Nc2ccccc2)o1	-1	-18	12	6	-6.6	11	0.5	0	1.3	-6
CSc1nsc(/C=C/Nc2ccc(O)cc2C)c1C#N	-5	42	3	6	39	-26	0.1	7	2.3	15
COc1ccc(N(CC(=O)Nc2cccc(C)c2)S(=O)(=O)c2c(C)n[nH]c2C)cc1	1	8	x	x	x	0	-0.1	3	1.3	-8
NS(=O)(=O)c1ccc(N2CCCCCC2)c([N+](=O)[O-])c1	-4	-11	-20	-23	-5.1	-4	-0.4	-2	-2.7	7
Cc1ccc(NC(=O)Nc2nnc(-c3ccncc3)s2)cc1C	45	53	15	16	0.0	20	u	x	15	35
O=C1C2ON(c3ccccc3)C(c3ccncc3)C2C(=O)N1c1ccc(N2CCOCC2)cc1 (centres undefined)	4	6	-2	1	-0.1	8	0.4	2	5.1	-8
COC(=O)c1ccc(CSc2nnc(Nc3ccc(C)cc3)s2)o1	-2	4	x	x	x	10	-0.2	1	-2.1	17
O=C(c1ccco1)[C@@H]1[C@@H]2C(=O)N(c3ccccc3)C(=O)[C@@H]2C2c3ccccc3C=CN21 (some centres undefined)	6	4	x	x	x	3	1.2	-3	-1.3	-3
CC(C)CCn1cnc2c(cnn2-c2ccc(F)cc2)c1=O	-6	46	x	x	x	-2	0.4	4	1.4	9

A draw from above in order of SMILES length, smallest number first:
SMILES	ALR H2O2 inh	Calb FLC	rRNA inh HTS	rRNA inh HTS OD600	rRNA inh HTS RFP	Beta2AR agonist	Bfl-1 A1 inh	Beta cell apopt	LANA-H2B inh	T cruzi inh
CSc1nsc(/C=C/Nc2ccc(O)cc2C)c1C#N	-5	42	3	6	39	-26	0.1	7	2.3	15
Cc1ccc(NC(=O)Nc2nnc(-c3ccncc3)s2)cc1C	45	53	15	16	0.0	20	u	x	15	35
C(=C1/CCCC2=C1Nc1ncnn1C2c1ccccc1)/c1ccccc1 (centres undefined)	91*	-8	x	x	x	x	1.7	-17	-4.5	74*
COc1ccc(N(CC(=O)Nc2cccc(C)c2)S(=O)(=O)c2c(C)n[nH]c2C)cc1	1	8	x	x	x	0	-0.1	3	1.3	-8
O=C(c1ccco1)[C@@H]1[C@@H]2C(=O)N(c3ccccc3)C(=O)[C@@H]2C2c3ccccc3C=CN21 (some centres undefined)	6	4	x	x	x	3	1.2	-3	-1.3	-3

Carrying on:
SMILES	ALR H2O2 inh	Calb FLC	rRNA inh HTS	rRNA inh HTS OD600	rRNA inh HTS RFP	Beta2AR agonist	Bfl-1 A1 inh	Beta cell apopt	LANA-H2B inh	T cruzi inh
COc1ccc(N=C2SC(CC(=O)Nc3ccccc3OC)C(=O)N2Cc2ccco2)cc1 (centres undefined)	-3	-33	x	x	x	-5	0.7	-5	3.7	-31
CC(=O)c1sc(N2CCOCC2)nc1-c1ccccc1	17	22	21	12	0.5	-6	0.0	8	-3.7	-10
CCc1ccc(OCC(O)CN2CCN(c3ccccn3)CC2)cc1 (centres undefined)	x	-15	-6	0	3.2	2	-0.5	-6	-4.4	19
Cc1cc(C)n2ncc(C(=O)Nc3ccc4c(c3)OCO4)c2n1	-4	5	x	x	x	1	-0.5	-8	-2.6	-13
CC(Oc1ccc(Cl)cc1)c1ccnc(N)n1 (centres undefined)	-10	2	-16	-12	-2.3	5	-0.7	x	-1.1	-6
CN(C(=O)COC(=O)c1ccc(Cl)c(N)c1)c1ccccc1	8	-18	-3	2	0.5	-6	1.6	-14	-4.9	-15
CCOc1cccc(CN2CCCC(CNC(=O)c3cccc(OC)c3OC)C2)c1 (centres undefined)	x	-5	8	5	1.8	7	-0.1	-3	-1.2	30
Cn1c(C(=O)NCCCN2CCOCC2)cc2c(=O)n(C)c3ccccc3c21	-8	4	-7	-8	0.6	-5	-0.8	5	1.3	-4
O=C(N/N=C/c1ccccc1)c1ccc(CN2C(=O)c3cccc4cccc2c34)cc1	5	14	-7	-11	-0.2	-11	1.0	-5	-1.4	13
CC1=NN(C(N)=S)C(=O)C1N=Nc1c(Br)cc(Br)cc1Br (centres undefined)	98*	63	-39	-64	-7.2	3	-1.8	13	1.0	0
O=C(Nc1ccc(OCC(=O)N2CCC(Cc3ccccc3)CC2)cc1)c1ccco1	-6	-27	x	x	x	-18	-0.4	98*	0.0	-29
CCN(CC(=O)NCc1cccs1)c1nnnn1-c1ccccc1	x	3	x	x	x	1	-0.8	6	2.0	-4
CCOC(=O)C(NCc1ccccc1OC)(NC(C)=O)C(F)(F)F (centres undefined)	-13	-34	x	x	x	-2	-0.7	-7	2.0	-7
CCOC(=O)[C@@H]1[C@H]2COc3cc(OC)ccc3[C@H]2N2C(=O)N(c3ccc(C)cc3)C(=O)[C@]12C	9	x	0	6	-1.2	-2	-0.6	-2	-6.7	x
COc1ccc(S(=O)(=O)NCC2CCCN(C(=O)c3cccnc3C)C2)cc1 (centres undefined)	-5	-9	2	-1	-2.5	3	2.9	0	2.8	-14
COc1ccc(S(=O)(=O)Nc2ccc3c(c2)C(=O)N([C@H](C)CO)C[C@H](C)[C@@H](CN(C)S(=O)(=O)c2c(C)noc2C)O3)cc1	-3	x	3	4	-2.2	-2	0.0	3	11	x
Cc1ccc(S(=O)(=O)N2CC(C)C(=O)CC2C)cc1 (centres undefined)	x	3	5	6	-1.3	4	-0.4	-1	-3.4	2
COc1ccc(Cl)cc1S(=O)(=O)NCCCn1ccnc1	x	4	7	9	-0.5	-13	0.3	-4	-2.0	-7
O=C(NCCCN1CCOCC1)C1CCCN(S(=O)(=O)N2CCCCC2)C1 (centres undefined)	-14	-16	9	12	2.2	7	2.1	0	5.7	-2
Fc1ccccc1Cc1nnc2n1N=C(c1ccc(Cl)cc1)CS2	-7	-5	x	x	x	-7	0.6	0	-0.1	6
O/N=C1\CCSc2ccc(F)cc21	-6	2	-5	-1	-0.1	5	-2.7	-6	1.1	-1
CCCN(C(=O)CSc1ncccn1)C1CCS(=O)(=O)C1 (centres undefined)	-9	x	0	1	-0.6	15	0.2	-3	0.3	x
O=C1CSC(=Nc2ccc(Cl)cc2)N1Cc1cccnc1	x	-5	-20	-16	-5.2	-6	-0.4	-4	1.1	x

Looked up above:
Bfl-1 A1 inh with COc1ccc(CC(=O)OCC(=O)N(CC(C)C)c2c(N)n(Cc3ccccc3)c(=O)[nH]c2=O)cc1 = -0.5
rRNA inh HTS OD600 with CCCN(C(=O)CSc1ncccn1)C1CCS(=O)(=O)C1 (centres undefined) = 1
LANA-H2B inh with O=C1C2ON(c3ccccc3)C(c3ccncc3)C2C(=O)N1c1ccc(N2CCOCC2)cc1 (centres undefined) = 5.1
ALR H2O2 inh with CC1=NN(C(N)=S)C(=O)C1N=Nc1c(Br)cc(Br)cc1Br (centres undefined) = 98*
T cruzi inh with O=C(Nc1ccc(OCC(=O)N2CCC(Cc3ccccc3)CC2)cc1)c1ccco1 = -29
Calb FLC with CC1=C/C(=C\c2ccc(Br)o2)C(=O)O1 = 5
